miR-21 FLuc = qHTS Assay for Modulators of miRNAs and/orActivators of miR-21. HeLa miR-21 FLuc reporter, luciferase, 48 h. 340,000 tested, under 10 active. Potency, µM (top dose mostly 38.3 µM), without a hit: at the top dose reporter change, positive = more light. AID 2288, 2010; active = well fitted rising curve with a large enough effect; inconclusive = small, poorly fitted or top-dose-only effect; inactive = no such curve, though single readings can be large or run the other way;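 also: % of control where 0% means no effect; miR-21 action dims this reporter so a rising signal means less miR-21 action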
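HeLa cells stably expressing CMV-driven firefly luciferase with a downstream miR-21 binding sequence, endogenously expressing miR-21, were treated with titrations (up to about 40uM final) for 48 hours at 37 degree Celsius. Luciferase luminescence was read after lysis.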
Rango-impB inh = qHTS Assay for Inhibitors of Rango (Ran-regulated importin-beta cargo) - Importin beta complex formation; Importin subunit beta-1 (Homo sapiens), Q14974; Rango CFP/YFP FRET sensor + importin beta, 45 min; Potency, µM (titrated, usually from 92.2 µM), for the others: top-dose inhibition of complex formation; 340,000 tested, 0.031% active; AID 540263, 2011; active = rising FRET ratio curve, often small or poorly fitted; inconclusive = mostly compound fluorescence or quenching in the first reads; inactive = flat curves in all reads;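 also: potency is read from the fitted curve at half-maximal effect; 0% = DMSO wells and 100% = buffer wells lacking importin beta; nearly all actives have a fitted effect of over 15% in size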
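FRET biosensor Rango (snurportin 1 IBB between N-terminal EYFP and C-terminal Cerulean), 50 nM in PBS/1 mM DTT/0.02% Tween-20/0.1% BSA, preincubated 5 min RT with compound; 0.125 microM importin beta added, 45 min RT, CFP/YFP FRET ratio read.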
Rango dissoc inh = qHTS Assay for Inhibitors of RanGTP induced Rango (Ran-regulated importin-beta cargo) - Importin beta complex dissociation | Biochemical FRET Rango-importin beta, RanGTP-induced dissociation | 340,000 tested, 0.071% active | Potency, µM (doses to about 46.1 µM), for inactives: at the highest dose activity change, negative = inhibition; active means falling FRET ratio curve, often poorly fitted, with flat reads before Ran was added; inconclusive means other falling curves, or compound fluorescence or quenching; inactive means flat or rising ratio curve;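 also: potency is read from the fitted curve at half-maximal effect; % of control where 0% means no effect; nearly all actives have a fitted effect of over 45% in size; -100% = wells without RanGTP and RCC1; the record marks most hits as doubtful in a second field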
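Rango/importin beta premix (0.1/0.25 uM final), PBS + 1 mM DTT + 0.02% Tween-20 + 0.1% BSA; cpd 5 min RT; FRET pre-read; + RanGTP-RCC1 (0.6 uM Ran, 2 mM GTP, 0.2 uM RCC1); 45 min RT; FRET post-read, ex 430, em 486/530 nm.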
GLA inh pH 4.5 = qHTS Assay for Inhibitors of Human alpha-Galactosidase at pH 4.5; Alpha-galactosidase A (Homo sapiens), P06280; purified enzyme, 4-MU-alpha-Gal fluorescence, pH 4.5; activity change, negative = inhibition, % at 105 µM; 230,000 tested, under 10 active; AID 1467, 2008; inconclusive = small, poorly fitted or top-dose-only inhibition, or a rising curve; inactive = flat fitted curve, though single readings scatter; no compound was filed as active;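 also: 0% = full activity with enzyme and -100% = basal without enzyme; dose as in the result columns while the protocol names 77 µM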
Target sequence (P06280 whole entry, looked up): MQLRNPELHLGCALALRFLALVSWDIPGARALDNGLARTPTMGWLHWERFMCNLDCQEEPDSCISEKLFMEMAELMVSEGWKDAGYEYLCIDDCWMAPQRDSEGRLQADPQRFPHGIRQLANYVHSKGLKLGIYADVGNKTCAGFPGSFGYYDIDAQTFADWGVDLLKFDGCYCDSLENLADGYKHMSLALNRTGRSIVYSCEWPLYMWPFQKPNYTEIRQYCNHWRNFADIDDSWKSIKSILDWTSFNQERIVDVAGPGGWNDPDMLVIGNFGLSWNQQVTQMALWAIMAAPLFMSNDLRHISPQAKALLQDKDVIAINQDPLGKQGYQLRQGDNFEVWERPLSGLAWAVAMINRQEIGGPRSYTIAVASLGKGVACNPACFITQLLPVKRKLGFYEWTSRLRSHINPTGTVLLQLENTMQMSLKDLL
The depositor's hits bear a star; ? = inconclusive; . = not tested or not shown; & = joins results of further samples. This is a subset (hit frequency here may not be typical).

miR-21 FLuc	Rango dissoc inh	Rango-impB inh	GLA inh pH 4.5	SMILES
-35.6%	?	-2.1%	1.8	Cc1cc(C(=O)COC(=O)CNC(=O)c2ccc(F)cc2)c(C)n1Cc1ccco1
5.8%	16.8%	3.9%	-14.1	Cc1cc(C(=O)NCc2ccc(Cl)cc2)n(-c2ccccc2)n1
0.2%	-2.7%	1.1%	5.9	COc1ccc(C)cc1S(=O)(=O)Nc1cccc(Cl)c1Cl
-11.6%	?	?	1.9	Cc1ccc(C(=O)C2=C(O)C(=O)N(c3ncccn3)C2c2ccc(Cl)cc2)o1 (configuration not stated)
-7.0%	-6.9%	-0.6%	-3.1	CCCCNc1cc(F)nc(N)n1
0.1%	18.5%	3.0%	-3.8	O=C(Nc1nnc(-c2ccco2)o1)c1ccc(N2C(=O)CCC2=O)cc1
-1.3%	-11.2%	1.4%	?	Cc1cc(C)cc(NC(=O)c2cnn(-c3ccccc3)c2C2CCNCC2)c1
1.2%	-1.6%	-2.3%	-2.7	CC(C)n1nc(C(=O)Nc2ccccc2N2CCOCC2)c2ccccc2c1=O
-2.7%	0.1%	-0.2%	2.9	Cc1ccc(CNC(=O)c2nc3nc(C)cc(C)n3n2)cc1
-3.2%	-4.9%	-3.5%	11.5	CCN(CC)CCNc1nc(-c2ccco2)c2c(c1C#N)CC(C)(C)OC2
-5.2%	-13.3%	-0.3%	4.3	CCCN(CC#CC(O)(c1ccccc1)c1cccnc1)CCC (configuration not stated)
-54.4%	5.3%	2.0%	12.2	O=C(NNC(=O)c1ccccc1F)c1cccc(Cl)c1

(cont.)
miR-21 FLuc	Rango dissoc inh	Rango-impB inh	GLA inh pH 4.5	SMILES
1.2%	-25.0%	-2.2%	.	O=S(=O)(c1ccccc1F)N1CCc2ccccc2C1
-2.6%	-3.5%	-0.7%	.	COc1ccc(C)cc1NC(=O)CCCN1C(=O)C2CC=CCC2C1=O (configuration not stated)
-3.5%	-1.9%	0.0%	.	Cc1ccccc1/C=N/N1C(=O)CSC1=S
12.8%	7.5%	0.0%	.	COc1cc(CN2CC(=O)N(c3cc(Cl)ccc3C)C2=S)cc(OC)c1OC
7.4%	0.1%	1.3%	-19.8	COc1ccc(/C=C/C(=O)CC(O)(c2ccccc2)C(F)(F)F)cc1 (configuration not stated)
-42.7%	0.5%	0.1%	2.9	Cc1ccccc1C(=O)Nc1nnc(-c2ccco2)s1
22.7%	-6.5%	?	.	CSc1nc(C(=O)N2CCCC(N3CCN(c4ccccc4C)CC3)C2)cs1 (configuration not stated)
.	31.5%	-1.0%	.	O=C(OCc1nnc(-c2ccccc2)o1)c1cc(=O)[nH]c2ccccc12
-9.7%	15.0%	-2.7%	0.6	Cc1cc(Cl)c(O)c(-n2nc3ccccc3n2)c1
2.1%	-0.8%	-3.1%	-17.9	Cc1ccccc1CC1(CO)CCCN(Cc2ccc3c(c2)OCCO3)C1 (configuration not stated)
-1.1%	-3.3%	3.1%	0.9	CCNc1nc(Cl)nc(N(NC(C)=O)C(C)C)n1
-6.7%	5.3%	2.0%	-7.7	CN(C)CC1CCCCC1OC(=O)c1ccc(Cl)cc1 (configuration not stated)

Next records follow:
miR-21 FLuc	Rango dissoc inh	Rango-impB inh	GLA inh pH 4.5	SMILES
21.4%	-1.0%	-3.0%	.	COc1cc(CCC(=O)Nc2nnc(C)s2)cc(OC)c1OC
-5.9%	15.8%	-1.9%	-9.5	CCOC(=O)C1CCN(C(c2cccc(F)c2)c2sc3nc(C)nn3c2O)CC1 (configuration not stated)
-2.5%	-1.2%	4.6%	-7.1	Cc1nc2ccccc2n1C1CC(=O)N(N(C)C)C1=O (configuration not stated)
13.6%	-2.6%	-0.8%	.	CC(=O)N1CCOc2ccc(S(=O)(=O)N3CCC(C(=O)Nc4ccc(C)c(C)c4)CC3)cc21
.	22.6%	0.5%	.	C=CC[C@H](CC(=O)NCCO)C(=O)N[C@@H](C)COC(=O)[C@@H](CC=C)CC(=O)OC(C)(C)C
16.0%	-4.4%	3.2%	0.3	COC(=O)c1cc(NC(=O)C(C)c2ccc(CC(C)C)cc2)ccc1O (configuration not stated)
-1.5%	1.1%	0.2%	-6.7	COc1ccc2c(c1)C=C(C(=O)NCc1ccc(Cl)cc1)CO2
-28.1%	?	?	-10.6	CCn1c(O)c(/C=N/N=C2CCCCC2)c2cc(C3=NNC(=O)CC3)ccc21
-2.9%	-14.7%	2.7%	2.8	CCOCCCNCC(=O)N1CCN(S(=O)(=O)c2ccc(C)cc2)CC1
-4.5%	-6.9%	0.8%	8.6	CCCc1cc(=O)[nH]c(SCC(=O)N(CC)C2CCS(=O)(=O)C2)n1 (configuration not stated)
-4.1%	8.9%	-0.3%	-7.2	NS(=O)(=O)c1cccc(NC(=O)CNC(=O)CC23CC4CC(CC(C4)C2)C3)c1
-11.8%	-16.9%	-2.5%	.	COc1ccc(/C=C/C(=O)Nc2ccccc2C(=O)NCC(c2ccc(OC)cc2)N(C)C)cc1 (configuration not stated)

The listing continues:
miR-21 FLuc	Rango dissoc inh	Rango-impB inh	GLA inh pH 4.5	SMILES
-3.5%	0.9%	?	-6.2	COc1ccc(NC(C)=O)cc1NC(=O)CSc1nnc(-c2cccnc2)n1C
-2.1%	-8.8%	-1.9%	2.4	COc1ccccc1CC1(C)NC(=O)N(CC(=O)Nc2cc(C)on2)C1=O (configuration not stated)
-3.9%	?	0.6%	.	O=C(Nc1c(C(=O)N2CCC(N3CCCCC3)CC2)oc2ccccc12)c1ccc(F)cc1
-0.9%	10.0%	-0.5%	3.1	O=S(=O)(c1cccc2cccnc12)N1CCN(c2ccccn2)CC1
-1.1%	0.4%	-1.9%	-4.8	O=C(CSc1cccc(C(F)(F)F)c1)N1CCN(S(=O)(=O)c2ccccc2)CC1
.	10.5%	-6.8%	.	CC(OC(=O)c1nc(Cl)ccc1Cl)C(=O)NC1CCCCC1C (configuration not stated)
-0.4%	4.3%	0.0%	-1.9	CC(C)(C)c1ccc(OCC(=O)NC2CCS(=O)(=O)C2)cc1 (configuration not stated)
5.2%	-10.1%	?	.	COc1ccc(OC2CCN(S(=O)(=O)c3ccc(OC)c(OC)c3)CC2)cc1
0.1%	-13.1%	9.6%	-2.4	COc1ccc(CNC(=O)COC(=O)c2ccco2)cc1
0.1%	-9.4%	-2.1%	.	COc1ccc(CN2CCNC(=O)C2CC(=O)NCC(C)(C)N2CCOCC2)cc1C (configuration not stated)
1.0%	7.0%	-4.8%	16.7	CCOc1ccc(Nc2nc(C)cc(C)c2C#N)cc1
?	8.0%	-0.3%	0.6	Cc1cc(Sc2ncnc(N)c2[N+](=O)[O-])ncn1

Profiles, looked up by structure.
COc1ccccc1CC1(C)NC(=O)N(CC(=O)Nc2cc(C)on2)C1=O (configuration not stated) is listed with miR-21 FLuc = -2.1%; Rango dissoc inh = -8.8%; Rango-impB inh = -1.9%; GLA inh pH 4.5 = 2.4
COc1ccc(NC(C)=O)cc1NC(=O)CSc1nnc(-c2cccnc2)n1C is listed with miR-21 FLuc = -3.5%; Rango dissoc inh = 0.9%; Rango-impB inh = ?; GLA inh pH 4.5 = -6.2

New compounds follow.
miR-21 FLuc	Rango dissoc inh	Rango-impB inh	GLA inh pH 4.5	SMILES
-6.2%	2.1%	-0.8%	6.9	Cc1ccccc1NC(=O)C(=O)N/N=C/c1cccc(Br)c1
0.2%	-8.8%	0.6%	.	COc1ccc(CCNC(=O)Cn2c(=O)c3cccn3c3cccnc32)c(OC)c1OC
-1.1%	-8.3%	-3.3%	-2.0	CCCCC(Nc1ncnc2ccccc12)C(=O)O (configuration not stated)
-22.2%	-1.7%	-5.5%	-0.6	COc1cccc(-c2nnc(SCc3ccccn3)n2C)c1
1.4%	?	?	-7.7	O=C(NN1C(=O)/C(=C/C=C/c2ccco2)SC1=S)c1ccccc1O
-0.7%	5.5%	2.0%	-2.2	COc1ccc(Cl)cc1N(CC(=O)Nc1ccc2c(c1)OCO2)S(C)(=O)=O
-14.4%	-1.6%	-1.5%	.	CCOC(CNc1ncnc2sc(-c3ccccc3)cc12)OCC
3.1%	?	?	9.2	Cc1cc2c(c(=O)n1CCc1ccccc1)C(c1ccco1)C(C#N)=C(N)O2 (configuration not stated)
8.8%	6.6%	6.3%	-2.6	Cc1cc(C)c(S(=O)(=O)c2c(C)cccc2C)c(Cl)n1
-5.3%	12.3%	0.1%	-1.6	O=C(O)c1ccc2cccnc2n1
-1.1%	10.9%	-0.2%	.	O=C(Nc1ccccc1C(=O)O)c1ccc(N2C(=O)C3CC=CCC3C2=O)cc1 (configuration not stated)
?	-19.3%	1.3%	-22.5	Cn1nc(C(C)(C)C)cc1C(=O)NCc1cc(F)cc2c1OCOC2

Further entries:
miR-21 FLuc	Rango dissoc inh	Rango-impB inh	GLA inh pH 4.5	SMILES
-10.5%	31.4%	-1.3%	6.5	C=C(C)C1CC=C(C)/C(=N\NC(=O)CNc2ccccc2OC)C1 (configuration not stated)
24.4%	27.6%	-0.3%	-3.5	O=S(=O)(Nc1cccc2cccnc12)c1ccc(S(=O)(=O)N2CCCC2)cc1
1.0%	0.7%	4.5%	-3.2	Cc1ccccc1NC(=O)N1C2CCCC1CC(NC(=O)C1CC1)C2 (configuration not stated)
-0.6%	18.1%	-3.7%	-3.4	COc1ccc(C)cc1NC(=O)C1CC(=O)OC12CCCCC2 (configuration not stated)
.	6.2%	0.4%	.	Cc1ccc(S(=O)(=O)CCC(=O)Nc2nnc(-c3ccc(F)cc3)o2)cc1
-8.6%	?	2.6%	.	Cc1ccc(NC(=O)CCc2nnc3ccc(NCc4ccco4)nn23)cc1F
-0.2%&-3.2%	1.0%	-5.2%	.	O=C(NCc1ccc(Cl)cc1)C1CCN(S(=O)(=O)c2cccc3nonc23)CC1
-21.6%	-3.6%	-0.1%	-10.3	Cc1ccc(N=C2NC(=O)c3cc([N+](=O)[O-])ccc32)cc1
-0.3%	-0.4%	3.2%	-2.2	CCOC(=O)c1cccc(-n2c(C)cc(C=O)c2C)c1
-8.8%	13.4%	-1.0%	8.1	O=C(NCc1ccc(Cl)cc1)c1cnccn1
-0.6%	14.9%	1.9%	-15.5	CCCn1nnnc1NC(=O)COc1ccc(Cl)c(C)c1
.	3.3%	4.2%	.	COc1cccc(C(=O)NCCS(=O)(=O)N2CCCCCC2)c1

Carrying on:
miR-21 FLuc	Rango dissoc inh	Rango-impB inh	GLA inh pH 4.5	SMILES
.	-1.1%	-0.2%	.	CCN1CCN(c2ccc(S(=O)(=O)N3CCOCC3)cc2NC(=O)CC(C)C)CC1
.	-15.3%	-1.0%	.	CCOc1ncccc1C(=O)Nc1ccc2c(c1)OCCO2
.	1.5%	4.3%	.	O=C(COC(=O)COc1cccc(Br)c1)NCc1ccc2c(c1)OCO2
-2.4%	-2.7%	-3.9%	-12.6	CCOC(=O)c1[nH]c2cc3c(cc2c1NC(=O)CN1CC(C)CC(C)C1)OCO3 (configuration not stated)
?	-15.6%	10.2%	-4.3&-3.0&-7.3	COc1cccc2c1C(=O)c1c(O)c3c(c(O)c1C2=O)C[C@@](O)(C(C)=O)C[C@@H]3O[C@H]1C[C@H](N)[C@H](O)[C@H](C)O1
-3.6%	10.8%	1.6%	-0.9	CCOc1ccc(NS(=O)(=O)c2ccc(OCC(=O)N3CCCC3)cc2)cc1
-46.8%	0.8%	0.4%	.	Brc1ccc(OCc2nc3ccccc3[nH]2)cc1
.	0.7%	?	.	Cc1cc(C)cc(OCC(=O)OCC(=O)NC2CCCC2)c1
-4.2%	-17.2%	?	-5.3	O=C1CN(C(=O)CCCc2c[nH]c3ccccc23)c2ccccc2N1

Screening results deposited in PubChem by National Center for Advancing Translational Sciences (NCATS).
